Bioassay records as filed in PubChem.
gsp agonist: qHTS for Agonist of gsp, the Etiologic Mutation Responsible for Fibrous Dysplasia/McCune-Albright Syndrome: qHTS | gsp mutant cells, cAMP HTRF, 30 min; control for the full effect not named in the record | Potency, µM (series often up to 76.9 µM), without a hit: at the top dose activation (cAMP increase), hits mostly activators | 340,000 compounds, 0.13% hits | AID 624287, 2012; active = well fitted activation curve with a large enough effect; inconclusive = small, poorly fitted or top-dose-only effect, or another doubt; inactive = no such curve, though single readings can be large or run the other way; cell line not stated here;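 also: phosphodiesterase inhibitor Ro 20-1724 added with compounds to block cAMP breakdown; potency is read from the fitted curve at half-maximal effect; nearly all actives have a fitted effect of over 60% in size; about a fifth of the inactives were tested at one dose only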
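Cells in DMEM/10% FBS with G418 were pretreated with compounds in DMSO plus […] (300 uM stock) for 30 min at 37C. cAMP was measured by HTRF (cAMP-d2 plus anti-cAMP antibody-K) after 30 min at room temperature.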
gsp antagonist: qHTS for Antagonists of gsp, the Etiologic Mutation Responsible for Fibrous Dysplasia/McCune-Albright Syndrome: qHTS; gsp-mutant cells, cAMP HTRF, 30 min; control for the full effect not named in the record; Potency, µM (series often up to 76.9 µM), for inactives: at the highest dose activity change, negative = inhibition, actives largely listed as inhibitors; 340,000 compounds, 0.4% hits; AID 624288, 2012; active = falling curve of any shape with a large fitted effect; inconclusive = falling curve, mostly with a smaller effect; inactive = flat or rising curve; cell line not stated here;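 also: intracellular cAMP measured with PDE inhibitor Ro 20-1724 present during compound exposure; potency is read from the fitted curve at half-maximal effect; % is scaled to controls: 0 for no effect and ±100 for the full control effect; nearly all actives have a fitted effect of over 65% in size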
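Cells, 2000/well, grown 16–24 h in DMEM 10% FBS with 0.5 mg/ml G418, then compounds plus […] (300 uM addition stock), 30 min at 37C. cAMP read by HTRF (cAMP-d2 and anti-cAMP antibody-K in lysis buffer) after 30 min RT.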
ClpP mod: qHTS Assay for Activators of ClpP. Potency, µM (top dose mostly 57.5 µM), for the others: at the top dose activity change, negative = active. ATP-dependent Clp protease proteolytic subunit (Bacillus subtilis (strain 168)), P80244. purified B. subtilis ClpP, FRET peptide cleavage, 20 min. AID 651965, 2013. 340,000 compounds, 1.9% hits; active = well fitted falling curve with a large enough effect; inconclusive = small, poorly fitted or top-dose-only effect; inactive = no such curve, though single readings can be large or run the other way; also: potency is read from the fitted curve at half-maximal effect; the source files actives as falling curves though it sought activators and does not explain the sign; nearly all actives have a fitted effect of over 65% in size; many hits overshoot -100%
Target sequence (P80244 whole entry, looked up): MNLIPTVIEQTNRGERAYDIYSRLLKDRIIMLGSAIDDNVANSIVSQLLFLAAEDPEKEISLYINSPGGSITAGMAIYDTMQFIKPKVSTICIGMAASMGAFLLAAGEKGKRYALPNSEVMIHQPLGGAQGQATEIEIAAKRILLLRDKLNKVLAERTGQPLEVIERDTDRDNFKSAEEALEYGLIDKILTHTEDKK
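Purified B. subtilis ClpP, 10 microg/mL final in Tris/HCl pH8 with KCl, BSA, glycerol and Tween-20, cleaved an Abz/nitrotyrosine-quenched decapeptide. Fluorescence (ex 320, em 430) was read at 0 and 20 min at room temperature. Delta was normalized to 5.8 microM ADEP and DMSO/no-enzyme controls.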
Menin MLL FP FL: qHTS Assay for Inhibitors Targeting the Menin-MLL Interaction in MLL Related Leukemias: Competition With Fluorescein Labeled MLL-derived Peptide | Fluorescence polarization, fluorescein-MLL peptide displacement from menin | FP activity change, % at 61.4 µM | 290,000 tested, under 10 active | AID 1766, 2009; inconclusive = falling polarisation curve, or a change in total fluorescence; inactive = total fluorescence flat and polarisation flat or rising; no compound was filed as active; the % refers to the polarisation; negative = inhibition;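 also: % of control where 0% means no effect; inhibitors lower the polarisation; unlabelled MLL peptide was the positive control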
Sfp inh: qHTS Assay for Inhibitors of Bacillus subtilis Sfp phosphopantetheinyl transferase (PPTase) | 4'-phosphopantetheinyl transferase ffp (Bacillus subtilis), Q9F4F7 | Biochemical Sfp PPTase activity, qHTS | Potency, µM, for inactives: max response, negative = inhibition, most hits filed as inhibitors | 310,000 compounds, 3.5% hits | AID 1490, 2009; active = well fitted inhibition curve with a large enough effect; inconclusive = small, poorly fitted or top-dose-only effect, or another doubt; inactive = no such curve, though single readings can be large or run the other way;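 also: the enzyme is Sfp with the accession as filed and its product quenches rhodamine fluorescence; potency is read from the fitted curve at half-maximal effect; 0% = enzyme reaction without inhibitor and -100% = no enzyme wells; top concentration of the series not given in the record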
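After 15 min at room temperature with compound, 15 nM Sfp received 5 uM rhodamine-CoA plus 12.5 uM BHQ-2-ybbR (50 mM Hepes pH 7.6, 10 mM MgCl2). Rate came from the fluorescence difference over 30 min, ex 525/em 598 nm.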
CtBP-E1A blk: qHTS Assay for Inhibitors of the CtBP/E1A Interaction; AlphaScreen GST-E1A/His-CtBP binding, 1536-well; active compounds read low; control for the full effect not named in the record; activity change, % (test concentration not listed); 340,000 compounds, 0.49% hits; AID 651724, 2012; in the data active means activity change below about -65%; inconclusive means about -30% to -65%; inactive means above about -30%; also: % is scaled to controls: 0 for no effect and ±100 for the full control effect
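Protein mix (5X: 125 nM each GST-E1A, His-CtBP) was incubated with pinned compound 2 h at 37 deg C in dark, in 50 mM Tris pH 8.0 buffer with 300 mM NaCl. Glutathione donor and nickel acceptor beads followed; AlphaScreen signal read after 1 h.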
TRPV1 potentiator: HTS Assay for Compounds that Act as Potentiators of the Vanilloid Receptor 1; Transient receptor potential cation channel subfamily V member 1 (Homo sapiens), Q8NER1; TRPV1-expressing cells, Fluo-8 calcium influx, capsaicin EC20 potentiation; host cell line not named in the record; control for the full effect not named in the record; potentiation, % at 8.33 µM; 320,000 compounds, 0.02% hits; active means potentiation above 80%; inconclusive means 30% to 80%; inactive means below 30%; also: 0% is about no effect
Target sequence (Q8NER1 whole entry, looked up): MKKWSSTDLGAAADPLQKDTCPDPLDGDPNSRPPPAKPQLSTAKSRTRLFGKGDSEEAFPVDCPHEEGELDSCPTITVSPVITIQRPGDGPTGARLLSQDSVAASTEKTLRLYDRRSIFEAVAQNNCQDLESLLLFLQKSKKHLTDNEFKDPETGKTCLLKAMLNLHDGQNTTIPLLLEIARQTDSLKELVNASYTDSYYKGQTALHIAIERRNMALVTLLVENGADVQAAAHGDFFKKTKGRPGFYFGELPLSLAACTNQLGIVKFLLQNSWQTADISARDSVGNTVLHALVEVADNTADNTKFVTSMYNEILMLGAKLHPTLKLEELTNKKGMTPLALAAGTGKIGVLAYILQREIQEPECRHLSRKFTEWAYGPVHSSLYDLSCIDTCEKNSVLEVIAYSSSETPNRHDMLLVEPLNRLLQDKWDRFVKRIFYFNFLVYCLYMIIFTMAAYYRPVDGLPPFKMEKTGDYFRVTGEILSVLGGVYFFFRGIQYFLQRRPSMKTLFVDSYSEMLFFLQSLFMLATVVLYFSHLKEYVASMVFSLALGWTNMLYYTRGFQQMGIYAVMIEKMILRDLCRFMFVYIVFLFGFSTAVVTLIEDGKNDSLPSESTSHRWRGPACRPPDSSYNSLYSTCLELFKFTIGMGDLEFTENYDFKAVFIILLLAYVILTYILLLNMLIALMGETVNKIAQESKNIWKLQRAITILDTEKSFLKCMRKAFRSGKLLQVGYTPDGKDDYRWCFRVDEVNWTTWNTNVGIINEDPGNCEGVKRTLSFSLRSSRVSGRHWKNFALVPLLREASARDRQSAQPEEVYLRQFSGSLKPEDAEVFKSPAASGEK
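Cells expressing TRPV1 were dye-loaded with Fluo-8 and read kinetically: 10 s baseline, 3 min after compound (agonist portion), then 2 min after EC20 capsaicin (allosteric enhancer portion). Calcium-bound dye fluorescence at 480/520 nm.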
Starred values were filed as active, the others as inactive; ? = inconclusive; nt = not tested or not shown; & = joins results of further samples; [ ] = dose if it differs, or a comment.

| compound | Menin MLL FP FL | gsp antagonist | gsp agonist | ClpP mod | Sfp inh | CtBP-E1A blk | TRPV1 potentiator |
| --- | --- | --- | --- | --- | --- | --- | --- |
| Cc1ccccc1OCC(=O)Nc1ccc(C(N)=O)cc1 | 1.6 | -1% | -6% | 0.7% | 11% | 7 | -3 |
| CCCC1CCC(C(=O)Nn2cnc3ccccc3c2=O)CC1 (configuration not stated) | 2.3 | 3% | -19% | -1.3% | 1% | -4 | -2 |
| CC(=O)Nc1cc(-c2ccc(Cl)cc2)[nH]n1 | 4.6 | -23% | 5% | 0.8% | 10% | 7 | -18 |
| Cc1cc2nc3n(c2cc1C)CC1CC(C(=O)NCC2CC2)N(C)C31 (configuration not stated) | 6.5 | -19% | nt | 0.2% | 0% | -4 | -7 |
| CCCOC(=O)c1ccc(NC(=O)c2nc3nc(C)cc(C)n3n2)cc1 | 5.8 | -30% | 20%[15.4 µM] | 0.4% | -11% | -2 | 15 |
| CC1=NC2(CCCc3c2no[n+]3[O-])N(O)C1(C)C (configuration not stated) | -0.3 | -1% | -38%[inhibitor] | -1.3% | 7% | 3 | -29 |
| CCN(CC)S(=O)(=O)c1ccc2[nH]c(=O)cc(C(=O)Nc3ccccc3N3CCOCC3)c2c1 | nt | -4% | -8% | -1.2% | nt | -1 | 5 |
| COc1ccc(C2c3ccsc3CCN2C(=O)C(C)(C)C)cc1 (configuration not stated) | 0.0 | -9% | 0% | -0.7% | -23% | nt | -6 |
| Cc1ccc(NC(=O)COc2ccccc2[N+](=O)[O-])nc1 | 1.9 | 1% | -1%[15.4 µM] | nt | 24% | nt | 29 |
| COc1ccccc1NC(=O)Cn1c(C)cc(=O)c2cccc(OC)c21 | -3.0 | 28µM* | 1%[15.4 µM] | -1.0% | -15% | ? | 16 |
| Cn1c(NC(=S)Nc2ccccc2)nc2ccccc21 | 2.3 | 2% | 18% | -2.5% | 18% | -4 | 0 |
| CC(C)(C)C1CCC(=NNc2ncc(C(F)(F)F)cc2Cl)CC1 (configuration not stated) | 5.0 | 8% | 9% | -3.4% | -5% | 5 | 0 |
| Cc1ccc(CN2CCN(/N=C/c3ccc(N(C)C)cc3)CC2)cc1 | -0.9 | 5% | -24% | nt | 2% | -6 | 7 |
| O=C(COC(=O)/C=C/c1ccc(OC(F)F)cc1)NCCN1C(=O)CSC1=O | -0.9 | -1% | -12%[15.4 µM] | nt | 10% | -2 | 3 |
| Cc1ccn(CC(=O)N/N=C/c2cc([N+](=O)[O-])ccc2O)n1 | nt | 3% | -3%[15.4 µM] | -4.3% | 6% | -93* | -2 |
| COC(=O)C1CCN(C(=O)COc2ccc(Cl)cc2)CC1 | 0.2 | 7% | -6% | 1.2% | 5% | 2 | ? |
| Cc1ccc(NC(=O)COC(=O)C2CCC2)cc1S(=O)(=O)N1CCCCC1 | nt | 8% | -27% | -1.0% | nt | -12 | 4 |
| COC(=O)[C@H](Cc1ccccc1)NC(=O)c1cc(COc2c(F)cccc2F)on1 | -3.3 | 3% | 15% | -4.3% | 12% | 1 | -10 |
| Cc1ccccc1NC(=O)C1CC(=O)N(c2ccccc2F)C1 (configuration not stated) | 4.8 | 4% | ? | 14µM* | 4% | 3 | -6 |
| Cc1ccc(C)c(CN2C(=O)C(C)Oc3ccc(C)cc32)c1 (configuration not stated) | 1.7 | -31% | 18% | -1.3% | 1% | 19 | -15 |
| C=CCN1C(=O)CSc2ccc(C(=O)NCc3ccc(F)cc3)cc21 | nt | -2% | -34% | 1.9% | -1% | 2 | -8 |
| CCOC(=O)CC(NC(=O)Cn1nnc(-c2ccccc2F)n1)c1ccccc1Cl (configuration not stated) | -0.8 | -5% | 5% | -0.7%&-0.1% | -5% | nt | -6 |
| CC(=O)c1cc2ccc(O)cc2oc1=O | ? | 9% | 20% | 3.9% | 17% | -4 | 0 |
| CCN1CCN(c2cc(C)c3cc(NC(=O)c4cnccn4)ccc3n2)CC1 | 1.2 | -6% | 11% | 0.0% | 8% | 0 | nt |
| O=C(COC(=O)c1cc([N+](=O)[O-])ccc1N1CCOCC1)Nc1c(Cl)cccc1C(F)(F)F | 3.4 | 10% | -4% | -0.7% | 0% | 4 | 14 |
| COc1ccc(C(=O)NCc2ccc(C(=O)O)o2)cc1 | 0.6 | 9% | -22% | nt | 24% | -4 | 9 |
| C=CCc1c(C)nc2cc(-c3ccc(C)cc3)[nH]n2c1=O | 3.5 | -8% | 1% | 4.3% | -19% | nt | 8 |
| Cc1ccc(-c2cn(CCN)c(-c3ccc(Cl)nc3)n2)cc1 | nt | 0% | nt | -16% | nt | -10 | -24 |
| CC(=O)Nc1cccc(NC(C)=O)n1 | 2.2&-1.4 | 8% | -13% | -2.7% | 8%&-6% | -5 | ? |
| Brc1ccc(CSc2ncnc3nc[nH]c23)cc1 | -2.9 | 10% | 22% | 0.5% | -12% | 3 | 5 |
| CC(C)(C)c1ccc(C(=O)c2c[nH]c(C(=O)NCc3cccnc3)c2)cc1 | 1.5 | ? | -30%[inhibitor] | -0.5% | 9% | -4 | -10 |
| N#CC1=C(N)OC2=C(CCc3ccccc32)C1c1ccccc1 (configuration not stated) | 2.0 | 20% | ? | -12% | 8% | 7 | 13 |
| CC(OC(=O)C1CC1C)C(=O)Nc1ncc(Cl)cc1Cl (configuration not stated) | nt | 5% | -8%[15.4 µM] | nt | nt | 4 | 0 |
| CCC1(c2ccccc2)NC(=O)N(CC(=O)Nc2ccccc2C(=O)N2CCCCC2)C1=O (configuration not stated) | nt | 4% | 5% | -6.2% | nt | -2 | 4 |
| O=S(=O)(NCCN1CCOCC1)c1cc(Cl)c(Cl)cc1Cl | -4.3 | 4% | -7% | -1.7% | 13% | -5 | ? |
| COc1ccccc1-c1ccc(SCc2ccccc2)nn1 | 0.2 | -2% | -2%[15.4 µM] | nt | -19% | -4 | 5 |
| CC(NC(=O)C(=O)NCc1cccs1)c1ccccc1 (configuration not stated) | -28 | 6% | -22% | 0.6% | -18% | 4 | 7 |
| Clc1ccc(-c2csc(N3CCSCC3)n2)cc1 | 4.7 | -2% | 3% | -0.9% | -3% | 2 | -5 |
| Cc1cccc(N2CCN(C(=O)CCN3C(=O)C4C5C=CC(C5)C4C3=O)CC2C)c1 (configuration not stated) | -1.4 | -8% | -11% | -0.4% | 7% | nt | -20 |
| O=C(CSc1n[nH]c(=O)n1C1CC1)Nc1ccc(Cl)cc1Cl | nt | 1% | -1% | 1.4% | nt | 9 | nt |
| CCC(C)NC(=O)COc1ccccc1[N+](=O)[O-] (configuration not stated) | 2.5 | 13% | 2%[15.4 µM] | 1.0% | 9% | -4 | 0 |
| CN(C)c1nc(N(C)C)n(Cc2c(Cl)cccc2Cl)n1 | -0.8 | -4% | -14%[15.4 µM] | nt | 17% | -7 | 4 |
| Cc1cccc2nc(=S)n(C(=O)c3ccco3)n12 | 6.2 | 11% | -73%[inhibitor] | -12% | 16µM* | 3 | -10 |
| COc1cccc(COC(=O)C2CCN(S(=O)(=O)c3ccc(F)cc3)CC2)c1OC | nt | -1% | -32%[inhibitor] | -1.1% | nt | 12 | -21 |
| Cc1c(NS(=O)(=O)c2ccccc2)c(=O)n(-c2ccccc2)n1C | 2.6 | 2% | 27% | 1.4% | 15% | 9 | 4 |
| CSc1ccc(NC(=O)CC(C)=O)cc1 | -0.1 | 4% | 13% | -0.9% | 6% | 2 | 0 |
| O=C(CSc1cccc[n+]1[O-])NN(c1ccccc1)c1ccccc1 | -2.0 | ? | -9% | 1.3% | 12% | 3 | -11 |
| CCNCc1cc(OCC)c(OCC(=O)NCCc2ccccc2)cc1Cl | 7.4 | 0% | -49% | 0.6% | -5% | 20 | -4 |
| NC(=O)C1CCN(C(=O)CC2(CC(=O)O)CCCCC2)CC1 | 1.8 | 15% | -24%[15.4 µM] | nt | 24% | 0 | 11 |
| COc1ccc(CC(=O)Nc2ccccc2NC(=O)c2ccco2)cc1OC | 0.3 | -5% | 29%[15.4 µM] | nt | 16% | 5 | 30 |
| COc1ccc(S(=O)(=O)Nc2ccc3c(c2)C(=O)N([C@H](C)CO)C[C@H](C)[C@@H](CN(C)C(=O)Nc2c(C)noc2C)OCCCC[C@H](C)O3)cc1 | nt | nt | 11% | 0.0% | nt | -5 | nt |
| CC1CC(C)CN(S(=O)(=O)c2cccc(C(=O)OCCN3CCCC3=O)c2)C1 (configuration not stated) | 0.8 | 4% | 16% | 0.4% | -1% | 9 | 3 |
| CN(C(=O)CCc1nc2ccccc2c(=O)[nH]1)C1CCS(=O)(=O)C1 (configuration not stated) | nt | 15% | 23% | -2.7% | nt | -6 | 9 |
| CCOc1ccc(NC(=O)CN(C)CC(=O)Nc2cc(Cl)ccc2C#N)cc1OCC | 1.3 | -23% | -24% | -1.1% | -5% | -13 | 1 |
| Cc1ccc(S(=O)(=O)N2CCCCC2C(=O)N(C)c2ccccc2)cc1 (configuration not stated) | 2.4 | -6% | 2% | 2.1% | 8% | 4 | 14 |
| CCC(=O)Nc1nnc(-c2ccncc2)s1 | 4.4 | -3% | -43%[inhibitor] | 16µM* | 21% | -2 | 2 |
